ugtP null kill: compounds lethal to S. aureus RN4220 ugtP deletion mutant. OD600 growth, 16 h; some inactives read as strong as hits. growth inhibition, % (concentration not given with the values). 330,000 tested, 0.54% active. AID 1259309;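 active = z-score under -3 and OD600 up to 0.15 on both plates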;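 also: plate controls were untreated wells for no effect and antibiotic for full effect; wells of about 80 µL received 100 nL stock; the first replicate is given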
Bead autofluor: counter-screen for toxin protease inhibitors: compound fluorescence. compound autofluorescence counterscreen, microsphere flow cytometry; hits give high values. fluorescence intensity (test concentration not listed). 360,000 tested, 3.1% active. AID 624483;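 active = at least 3 SD above the mean of all compounds, about 16000 in these data; inconclusive = too few beads counted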;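 also: 100 nL of 1 mM stock went into each well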
BJeLR lethal: BJeLR cell viability loss | BJeLR (HRASV12) viability, CellTiter-Glo ATP luminescence, 48 h; reference of the scale not given here | inhibition, % (concentration not given with the values) | 300,000 tested, 0.17% active | AID 1554;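 active = replicate mean above 50%; inconclusive = above 50% but judged a plate artefact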;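 also: 50 nL library stock added to about 25 µL; numbers are from one replicate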
Mtb hypoxia rep: inhibitors of hypoxia-regulated fluorescent reporter in Mycobacterium tuberculosis; fluorescence inhibition, % (no concentration beside the values); 300,000 tested, 0.1% active; AID 1159583; M. tuberculosis hypoxia-regulated fluorescent reporter, fluorescence;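 active = 35 to 45% if threefold the growth effect, above 45% if 1.5-fold the growth effect; inactive = the rest, general growth blockers included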;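 also: wells of about 50 µL received 100 nL stock; 0% = vehicle wells and 100% = reference inhibitor wells; whole bacteria with a GFP reporter of the hypoxia response; strong numbers were not always called active; many hits fall short of the cut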
RN4220 kill: S. aureus RN4220 growth inhibition. inhibition, % (test concentration not listed). OD600, 16 h. AID 1259311. 330,000 tested, 0.33% active;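 active = z-score of -3 or lower and OD600 up to 0.18 on both plates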;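 also: plate controls were untreated cells for no effect and reference antibiotic for full effect; stock transfer was 100 nL into about 80 µL; one replicate is shown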
PrP 5UTR inh: suppresses PrP 5' UTR mRNA reporter expression. cell-based PrP 5' UTR mRNA reporter, plate reader. inhibition, % (test concentration not listed). 340,000 tested, 0.35% active. AID 488862;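 active = every replicate at 50% or more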;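 also: 0 = median of the neutral control wells; tested in H4 reporter cells; numbers are from one replicate; inactives centre near -14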
Mtb hypoxia rep growth: further read-out of Mtb hypoxia rep, marked with its call; growth inhibition, %; measured here: M. tuberculosis growth (absorbance);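 0% = vehicle and 100% = reference antibiotic; read after six days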
* marks the source's active call; other numbers are inactive results; ? = inconclusive; / = no result given.

Order of values – Mtb hypoxia rep growth	ugtP null kill	PrP 5UTR inh	Bead autofluor	Mtb hypoxia rep	RN4220 kill	BJeLR lethal
- COc1cccc(C(=O)Nc2ccc3c(c2)C(=O)NC3=O)c1
  0	7	-2	5559	-4	4.5	12
- CC(C)CNC(=O)c1cccc(NC(=O)c2ccco2)c1
  9	11	-15	12455	4	7.8	4
- O=C1CNC(=S)N1Cc1cccc(Cl)c1
  -1	5	-10	3843	11	0.2	3
- CCc1nnc(NC(=O)c2ccc(COc3cccc(C)c3)o2)s1
  19	-1	-6	5753	8	-0.8	-4
- COc1cc2sc(-c3ccc(S(C)(=O)=O)cc3)c(C(=O)NCCCCO)c2cc1OC
  7	-4	11	4159	1	2.4	/
- CN(CC(=O)Nc1ccccc1N1CCOCC1)S(=O)(=O)c1ccc(F)cc1
  /	1	-14	4385	/	0.5	4
- Cc1nc(Nc2ccc(S(N)(=O)=O)cc2)sc1-c1ccccc1
  7	-7	-25	3556	1	1.4	-2
- C#CCOCCOCCOCCNc1nc(N2CCN(C(=O)CCCCCCCCCCNC(=O)C(CCSC)n3cc(CCO)nn3)CC2)nc(N2CCN(C(=O)CCCCCCCCCCNC(=O)C(C(C)O)n3cc(C)nn3)CC2)n1 (stereo not given)
  9	8	/	/	4	6.6	/
- CC(=O)Nc1ccc(NC(=O)COc2ccc(-c3ccc(C#N)cc3)cc2)cc1
  /	/	-21	4408	/	/	-5
- COc1ccc(/C=N/n2nnnc2N)cc1OC
  /	/	-24	4166	/	/	3
- Cc1ccc(OCc2cccc(S(=O)(=O)N(C)C)c2)c([N+](=O)[O-])n1
  /	/	2	2833	/	/	-3
- CNC(C)C(=O)NC(C(=O)N1CCCC1C(=O)Nc1ccc2ncccc2c1)C(C)C (stereo not given)
  4	4	-8	2941	7	5.3	/
- CC(C)C(C)NC(=O)CN1C(=O)NC(c2ccccc2)(c2ccccc2)C1=O (stereo not given)
  -4	0	-10	5255	1	3.9	-2
- O=C(Cn1cnc2ccccc2c1=O)Nc1ccccc1N1CCOCC1
  1	1	-36	4127	12	6.4	1
- CN1C(=O)/C(=C/c2coc3ccc(O)cc3c2=O)SC1=S
  4	-9	-32	3571	-7	1.9	5
- Cc1cc(C)cc(N(CC(=O)NCC2CCCO2)C(=O)CCC(=O)Nc2cc(C)on2)c1 (stereo not given)
  /	8	3	2438	/	6.2	4
- COc1cccc(CNC(=O)Cc2ccc(OC)c(S(=O)(=O)N3CCOCC3)c2)c1
  -1	5	-4	4818	-3	0.9	-10
- Cc1ccc(NC(=O)c2cc(C)n(-c3cccc(C)c3)c2C)cc1
  3	15	27	11316	1	-9.7	5
- CC(=NNC(=O)C(c1ccncc1)N1CCOCC1)c1ccc(Br)cc1 (stereo not given)
  -4	9	/	/	10	3.0	/
- CC(C)CC(=O)NC(=S)Nc1ccc(Cl)cn1
  -3	69	-41	2508	3	0.4	-1
- COC(=O)c1ccccc1CC1SC(N)=NC1=O (stereo not given)
  -6	12	1	6136	-10	2.0	0
- O=C(NCC1CCCO1)C1CCN(CC2CCCCC2)CC1 (stereo not given)
  2	2	-3	3259	7	7.1	-1
- CC(=NNC(=O)c1nnn(-c2nonc2N)c1CSc1ccccc1)c1cccnc1
  5	12	/	/	-1	10	/
- Cc1ccc(-c2nnc(SCC(=O)NC3CC3)o2)cc1
  3	4	-6	4427	7	6.3	-12
- CC1C(=O)N2CCCc3cc(S(=O)(=O)N4CCCCC4)cc1c32 (stereo not given)
  -1	2	-8	/	2	6.1	-1
- O=C(c1n[nH]c(=O)c2ccccc12)N1CCN(c2ccccc2Cl)CC1
  11	1	-24	3956	5	1.0	-2
- C[C@H](CO)N1C[C@H](C)[C@@H](CN(C)C(=O)Nc2ccccc2)Oc2ccc(NC(=O)Nc3ccccc3)cc2C1=O
  -3	2	-5	3871	-13	1.3	/
- Cc1ccc(N(CC(=O)NCC2CCCO2)C(=O)Cn2nnc(-c3cccs3)n2)cc1 (stereo not given)
  -1	1	-23	4805	1	0.6	-1
- O=C1CSC(=S)N1Nc1ccccc1
  6	-1	-17	3473	12	0.7	/
- CCOC(=O)Cc1cc(=O)n2[nH]c(-c3ccc(Cl)cc3)cc2n1
  6	13	-19	8989	-1	-3.2	6

An excerpt of these results, in CSV form.
molecule,Mtb hypoxia rep growth,ugtP null kill,PrP 5UTR inh,Bead autofluor,Mtb hypoxia rep,RN4220 kill,BJeLR lethal
COC(=O)c1ccccc1CC1SC(N)=NC1=O (stereo not given),-6,12,1,6136,-10,2.0,0
O=C(NCC1CCCO1)C1CCN(CC2CCCCC2)CC1 (stereo not given),2,2,-3,3259,7,7.1,-1
CC(=NNC(=O)c1nnn(-c2nonc2N)c1CSc1ccccc1)c1cccnc1,5,12,/,/,-1,10,/
Cc1ccc(-c2nnc(SCC(=O)NC3CC3)o2)cc1,3,4,-6,4427,7,6.3,-12

(more compounds)
Order of values – Mtb hypoxia rep growth	ugtP null kill	PrP 5UTR inh	Bead autofluor	Mtb hypoxia rep	RN4220 kill	BJeLR lethal
- COc1cc(C(C)=O)ccc1OCC(=O)Nc1ccccc1N1CCCC1
  /	/	-13	6316	/	/	-7
- Cc1ccc(C2/C(=C(\O)c3c(C)nc4c(C)cccn34)C(=O)C(=O)N2CCN(C)C)o1 (stereo not given)
  -9	1	-21	3865	2	0.8	/
- C/C(=N\N1CCCCC1)c1c(O)[nH]c(=O)[nH]c1=O
  4	9	-11	2148	11	5.4	-14
- COc1ccc2nc(NC(=O)c3ccccc3-c3ccccc3C(=O)O)sc2c1
  /	-1	-13	4144	/	4.3	8
- Cc1ccc(NC(=O)Nc2ccccc2)c(Br)c1
  4	7	-115	6726	-1	2.8	-11
- O=C(CCCC1=NS(=O)(=O)c2ccccc2N1)Nc1ccccc1
  1	-4	-35	5042	-4	0.2	-4
- COc1ccc(CCn2c(O)c(C=Nc3ccc(F)cc3)c(=O)[nH]c2=O)cc1OC
  1	0	/	6333	8	0.4	-4
- CC1=CC2=NC(=O)C(c3ccccc3)C(=O)N2C=C1 (stereo not given)
  12	0	-21	3856	7	2.7	/
- CC(=O)c1ccc(-n2c(-c3cc(-c4ccco4)[nH]n3)n[nH]c2=S)cc1
  9	-5	-7	3319	11	6.1	-13
- Cc1cc(C(=O)CSC(C)c2nc3ccccc3c(=O)[nH]2)c(C)n1C (stereo not given)
  /	2	-17	4511	/	2.2	5
- C=CCOC(=O)C(=O)/C=C/c1csc2ccccc12
  2	-3	5	4042	10	-11	-10
- COc1ccc(-c2nnn(CC(=O)N(C3CCCC3)C(C)C(=O)NC3CCCC3)n2)cc1OC (stereo not given)
  6	-6	5	11381	0	-0.7	5
- O=C(O)COc1ccccc1/C=N/NC(=O)CSc1nnc(SCc2ccc(Cl)cc2)s1
  /	/	-11	5364	/	/	1
- O=C(NCc1cccnc1)c1cc(Sc2ccccc2Cl)nc2ccccc12
  7	2	0	7820	-6	2.1	6
- COc1ccc(CCNC(=O)COC(=O)Cc2ccccc2)cc1
  3	7	-8	2652	5	2.7	1
- O=C(CCCn1c(SCC(=O)NC2CCCCC2)nc2ccccc2c1=O)NCC1CCCO1 (stereo not given)
  /	/	-17	21817*	/	/	-13
- CCOc1ccc(CC2S/C(=N/c3ccccn3)NC2=O)cc1 (stereo not given)
  2	6	-9	8007	19	4.3	-14
- CCOC(=O)N1CCN(c2ccc3nnnn3n2)CC1
  /	-8	-20	4682	/	-0.1	10
- O=C(NCC(=O)N1CCN(S(=O)(=O)c2ccccc2C(F)(F)F)CC1)c1sc2ccccc2c1Cl
  /	/	-21	?	/	/	0
- CSc1nccc(N2CCN(c3ccc(F)cc3)CC2)n1
  -2	1	-1	2418	13	7.1	13
- O=C(CCC(=O)N1CCOCC1)Nc1ccc(Cl)c(Cl)c1
  11	-4	-16	5565	6	-2.3	-8
- CC(NC(=O)/C=C/c1ccccc1)c1ccccc1 (stereo not given)
  8	3	2	3171	18	6.1	-8
- O=C(Nc1nnc(COc2ccc(Br)cc2)s1)c1ccco1
  10	-4	-61	3183	10	4.7	4
- CC(C)c1ccc(O)c(NC(=S)NC(=O)c2ccc3c(c2)OCO3)c1
  -4	-7	-45	6373	-8	20	-5
- CC(C)(C)c1cc(OS(C)(=O)=O)ccc1O
  /	/	-15	3889	/	/	0
- Cc1ccc(N(CC(=O)NC(C)C)C(=O)CCC(=O)Nc2nccs2)c(C)c1
  9	3	-18	3497	-6	4.2	-15
- Cn1c(=O)c2c(SCCN3CCOCC3)nc(C3CCCC3)nc2n(C)c1=O
  2	4	-42	3750	-2	7.0	-6
- O=C(Nc1ccc(S(=O)(=O)N2CCCC2)cc1)c1ccc(CN2CCOCC2)cc1
  -4	-10	-3	4439	-4	-1.6	9
- COC(=O)COc1ccc(S(=O)(=O)NCCC2=CCCCC2)cc1
  -16	-2	-4	5915	-4	1.4	-3
- Cc1c(Cc2ccccc2)sc(NC(=O)/C=C/c2cccc3ccccc23)c1C(N)=O
  6	-6	-33	9222	2	5.2	18
- Cc1ccc(NC(=O)Nc2ccc3c(c2)nc(C)n3C)cc1C
  6	-11	/	/	9	7.0	9
- Cc1ccc(C(=O)C[n+]2cc(Br)cc(Br)c2)cc1
  10	0	-19	3073	3	2.6	-12
- COc1ccc(NC(=O)CNc2ccccc2N2CCCC2=O)cc1S(=O)(=O)N1CCOCC1
  13	5	4	?	9	6.8	/
- COc1ccc(OC)c(S(=O)(=O)N2CCN(CC(O)COc3ccc(C#N)cc3)CC2)c1 (stereo not given)
  5	8	-2	3657	-12	1.6	-3
- CC(C)Oc1ccc(S(=O)(=O)N2CCCCC2)cc1NC(=O)C1=COCCO1
  7	5	9	?	7	2.1	-6
- S=C(Nc1cccnc1)NC1CCCCCCC1
  1	4	-8	7610	-4	3.4	-6
- Cc1cc(C)nc(NC(=S)Nc2ccccc2)n1
  2	4	-18	3914	-9	8.2	-3
- Cc1ccc(S(=O)(=O)N2CCOCC2)cc1C(=O)N1CCc2ccccc21
  6	5	-6	3565	7	4.2	/
- CN(CC(=O)OCC(=O)NCc1ccccc1)S(=O)(=O)c1ccc(Cl)cc1
  -3	7	-14	7335	0	2.0	-6
- Cn1nc(C2CC2)cc1NC(=O)CC(CC(=O)O)c1ccccc1 (stereo not given)
  -5	3	/	5808	-4	3.0	1
- CC(=O)NCCOc1nc(N2CCCCC2)nc(N2CCCCC2)n1
  6	1	-16	4270	0	4.2	-2
- Cn1[nH]c(C(F)(F)F)c(C=NCc2ccc(Cl)cc2)c1=O
  3	2	-15	2617	6	0.8	-6
- COC(=O)C(Sc1nc(C)cc(C)c1C#N)c1ccccc1 (stereo not given)
  0	31	-32	6801	10	3.1	-6
- CCCCn1c(SCC(=O)Nc2ccc3c(c2)OCCO3)nnc1C(CC)N(C)C (stereo not given)
  3	1	-19	/	7	0.4	/
- CCOc1ccc(-c2cc(C)[n+](CCN3CCOCC3)c(-c3ccc(OCC)cc3)c2)cc1
  17	-7	-12	5903	0	2.2	-9
- CCSC1=C(C#N)C(c2cccs2)C(C(=O)OC)=C(C)N1 (stereo not given)
  7	7	-16	22477*	9	0.6	3
- CCC(Sc1nc2n[nH]c(C)c2c(=N)n1-c1cccc(Cl)c1)C(=O)NCCOC (stereo not given)
  /	-4	-15	2629	/	14	-7
- CC1CCCCN1C(=O)CCC(=O)Nc1nnc(C(F)(F)F)s1 (stereo not given)
  -2	7	-27	4980	-1	4.6	2
- COC(=O)C(O)(CC(=O)Nc1ccc(C)c(F)c1)C(F)(F)F (stereo not given)
  -9	-5	-50	16452*	-10	1.8	7
- N#Cc1ccc(/C=C/C(=O)c2ccc3c(c2)OCO3)cc1
  26	2	-10	4370	24	9.2	4
- CCCCNC(=O)C1CCCNC1=O (stereo not given)
  1	11	-27	6635	-5	4.2	-5
- CCCCOC(=O)c1ccc(NC(=O)C(=O)NCCN(C)C)cc1
  3	-2	-12	6601	-3	-3.3	-8
- Cc1cccc(NC(=O)COC(=O)c2cc(C)n(C3CC3)c2C)c1
  3	1	/	/	11	7.9	/
- CCCC(C)C1(CC)C(=O)NC(=O)N=C1N (stereo not given)
  2	5	-17	2205	6	5.6	-9

Screening results from PubChem BioAssay.
